VDR inh – inhibitors of human vitamin D receptor. P11473. VDR-SRC2-3 peptide fluorescence polarization, 2 h. Potency, µM, inactives show max response, negative = inhibition, usual class: inhibitors. actives 0.93% (n = 400,000). AID 504847; active = well fitted inhibition curve with a large enough effect; inconclusive = small, poorly fitted or top-dose-only effect, or another doubt; inactive = no such curve, though single readings can be large or run the other way; note: series mostly up to about 120 µM
Target sequence (P11473 whole entry, looked up): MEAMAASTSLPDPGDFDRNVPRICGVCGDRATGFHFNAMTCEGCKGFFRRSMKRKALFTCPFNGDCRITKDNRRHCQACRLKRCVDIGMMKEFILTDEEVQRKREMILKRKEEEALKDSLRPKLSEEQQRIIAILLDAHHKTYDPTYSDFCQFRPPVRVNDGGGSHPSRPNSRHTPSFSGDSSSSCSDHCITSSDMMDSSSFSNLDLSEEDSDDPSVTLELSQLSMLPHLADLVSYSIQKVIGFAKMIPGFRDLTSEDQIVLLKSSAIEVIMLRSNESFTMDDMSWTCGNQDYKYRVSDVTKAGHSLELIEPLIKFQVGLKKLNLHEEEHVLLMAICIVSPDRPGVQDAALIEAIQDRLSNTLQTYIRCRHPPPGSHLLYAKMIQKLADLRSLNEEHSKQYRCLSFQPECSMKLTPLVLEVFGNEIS
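Compounds are added to VDR with labelled SRC2-3 coactivator peptide and held 2 h at room temperature. Inhibition of the VDR–peptide interaction is then read as a change in fluorescence polarization.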
Numbers without * were called inactive; ? = inconclusive. % is set by controls: 0 for no effect and ±100 for the full control effect; potency is the fitted concentration of half-maximal effect. The list is partial. The share of hits here may be higher or lower than overall.

VDR inh | Compound
24.8% | O=C(COC(=O)C1CCN(S(=O)(=O)c2cccs2)CC1)c1cc2ccccc2o1
5.0% | COc1ccccc1CNc1nc(=S)[nH]c2cc(OC)c(OC)cc12
11.6% | O=C(N/N=C/c1ccccc1F)NC12CC3CC(CC(C3)C1)C2
-8.6% | CC(C)(CNc1ccc(S(=O)(=O)C(F)(F)F)cc1[N+](=O)[O-])N1CCOCC1
11.1% | O=C1c2ccccc2C(=O)N1CCOc1ccccc1Cl
-10.9% | COc1cc2c(cc1NC(=O)CSc1nccn1C)oc1ccccc12
11.2% | CC(C)OCCCNC(=O)CN1C(=O)c2cccnc2Sc2ccccc21
-9.2% | CC(CN1CCC(n2nccc2NC(=O)c2ccccc2Cl)CC1)c1ccccc1 (stereo not drawn)
1.6% | Cc1ccc(C)c(C2NC(=O)c3ccccc3N2)c1 (stereo not drawn)
4.7% | CC1Cc2nc(SCC(=O)Nc3ccc4c(c3)OCO4)n(CCc3ccccc3)c(=O)c2S1 (stereo not drawn)
-12.0% | COc1ccccc1N1CCN(S(=O)(=O)CCNC(=O)c2cccc(F)c2)CC1
1.5% | CC(=O)Nc1nc(-c2ccccc2)ns1
-13.0% | CN(C(=O)COC(=O)c1cccs1)c1c(N)n(Cc2ccccc2)c(=O)[nH]c1=O
-2.7% | COc1ccc(NC(=O)Cc2nnc(SCC(=O)NC3CCCCC3C)n2C)cc1 (stereo not drawn)
14.6% | O=C(CN1C(=O)COc2ccc(S(=O)(=O)N3CCOCC3)cc21)NCc1ccco1
5.0% | COc1ccc(CN2CCOCC2)cc1
-24.7% | CC(C)CCC(O)(c1ccccc1)C(CN1CCOCC1)c1ccccc1 (stereo not drawn)
-4.5% | CS(=O)(=O)c1ccccc1-c1nc(-c2cccc(Cl)c2)no1
-6.4% | COC(=O)C(NC(=O)CCc1nnc2ccc(N3CCC(C)CC3)nn12)C(C)C (stereo not drawn)
-19.4% | CCOc1cc(C(N)=O)cc(Cl)c1OCC
-10.9% | CCc1ccccc1Nc1nc(N)nc(COC(=O)CCNS(=O)(=O)c2ccccc2)n1
13.5% | CC(C)Cc1nn2c(=O)cc(COC(=O)c3cccc(NC(=O)c4ccccc4)c3)nc2s1
-23.3% | COc1ccc(S(=O)(=O)N2CCCC2)cc1NC(=O)c1ccccc1F
8.1% | Cc1onc(-c2ccccc2Cl)c1C(=O)Nc1cccc2cccnc12
23.5% | CCC(C)(C(=O)NC1CCCC1)N(Cc1ccco1)C(=O)c1ccccn1 (stereo not drawn)
-19.7% | S=C(NCc1ccco1)N/N=C/c1cccnc1
0.0% | Cc1csc2nc(COC(=O)c3cccc(N(C)C)c3)cc(=O)n12
-20.1% | C/C=C\C=C/C(=O)Nc1cccc(C2=NOC3(C2)C[C@H](C(N)=O)N(C(=O)CC)C3)c1 (stereo partly drawn)
5.5% | COc1ccc(CCNC(=O)CSc2nnc(NC(C)=O)s2)cc1OC
-7.5% | CN(C)C1=NC[C@H](Cc2ccccc2)N1CC1CCCCC1
7.8% | COC(=O)c1cc(S(=O)(=O)N2CCC(c3ccccc3)C2)c[nH]1 (stereo not drawn)
-7.6% | CCc1ccc(C(=O)COC(=O)c2cccnc2Cl)cc1

Five compounds drawn at random from the list so far, as already listed:
VDR inh | Compound
-7.5% | CN(C)C1=NC[C@H](Cc2ccccc2)N1CC1CCCCC1
7.8% | COC(=O)c1cc(S(=O)(=O)N2CCC(c3ccccc3)C2)c[nH]1 (stereo not drawn)
-19.7% | S=C(NCc1ccco1)N/N=C/c1cccnc1
5.5% | COc1ccc(CCNC(=O)CSc2nnc(NC(C)=O)s2)cc1OC
23.5% | CCC(C)(C(=O)NC1CCCC1)N(Cc1ccco1)C(=O)c1ccccn1 (stereo not drawn)

Other entries follow.
VDR inh | Compound
-1.9% | COCCCN1C(=O)c2ccc(C(=O)O)cc2C1=O
-2.1% | CCC(C)c1ccc(S(=O)(=O)N2CCN(S(=O)(=O)c3ccc(NC(C)=O)cc3)CC2)cc1 (stereo not drawn)
-12.9% | CC(C)Nc1oc(Cc2cccc3ccccc23)nc1C#N
0.0% | O=C(c1ccc(COc2ccccc2Cl)o1)N1CCCC1
4.9% | CC(C(=O)Nc1c2c(cc3c1CCC3)CCC2)N1CCCC1 (stereo not drawn)
5.6% | COc1ccc(NC(=O)c2cnc(C)cn2)cc1-n1cnnn1
-12.6% | COC(C(=O)NC(C(C)C)C(C)C)c1ccccc1 (stereo not drawn)
0.6% | CCCCN1CN(Cc2ccco2)CNC1=S
20µM* | COc1ccc2c(c1)OC/C(=C\c1ccc(OC)c(O)c1)C2=O
-13.9% | COc1ccc(OC)c(/C=N/NC(=O)c2cc(-c3ccc(C)o3)nc3ccccc23)c1
-8.4% | O=C(Nc1ccc(C2CCCCC2)cc1)C1CCCN(c2ncccn2)C1 (stereo not drawn)
7.3% | Cc1ccc2sc(N3CCN(C(=O)CCS(=O)(=O)c4ccc(Cl)cc4)CC3)nc2c1C
15.3% | CCOc1ccc(C(=O)NCCCN2CCOCC2)cc1OCC
-6.8% | CC(=O)Nc1ccc(NC(=O)CSc2nc3ccccc3o2)cc1
-9.9% | O=C(Nc1ccc2oc(-c3ccccc3Cl)nc2c1)c1ncn[nH]1
23.5% | CCCCc1ccc(NC(=O)N2CCN(c3cc(C)nc4ccccc34)CC2)c(C)c1
-14.1% | COc1ccc([C@H]2CC(=O)C=C(c3cc(C(F)(F)F)cc(C(F)(F)F)c3)C2)cc1
-0.8% | O=C(c1ccccc1)c1cccn1CC(=O)N1CCN(c2ccc(F)cc2)CC1
5.0% | Cc1ccc(NC(=O)CSc2nc3ccccc3nc2Cc2ccccc2)c(Cl)c1
-9.4% | CCOC(=O)CSc1nc(C)c(C(C)=O)cc1C(N)=O
-0.4% | Cc1nc(-c2ccc(S(=O)(=O)NCC3CCN(C(=O)OC(C)(C)C)CC3)s2)cs1
-23.9% | Cc1cc(C)c(-c2csc(NC(=O)/C=C/c3cccs3)n2)c(C)c1
-7.6% | O=C(NNC(=O)c1ccccc1O)c1ccc(S(=O)(=O)Nc2ccccc2F)cc1
-2.6% | Cc1cc(NC(=O)Cn2nnc3sc4c(c3c2=O)CCCC4)no1
-15.0% | Cc1cc(NC(=O)Nc2ccc(F)cc2)no1
-4.9% | O=C(Cc1c(O)c2ccccc2oc1=O)c1ccc(F)cc1
? | Cc1ccc2nc(-c3ccc(C)o3)c(Nc3ccccc3)n2c1
13.8% | COc1cc(NC(=O)c2ccc(C)cc2)c(OC)cc1NC(=O)CN1CCOCC1
-7.5% | CCOC(=O)N1CCN(C(=O)Cn2cc3c(n2)CCCC3)CC1
7.1% | CC1C(c2ccc3c(c2)OCO3)c2cc3c(cc2OC1N1CCOCC1)OCO3 (stereo not drawn)
-3.4% | COC(=O)c1cc(C)sc1NC(=O)CCCC(=O)O
-10.3% | CCOc1ccc(CNCCc2ccc(S(N)(=O)=O)cc2)cc1
5.1% | CCCn1c(=N)n(CC(=O)c2cccs2)c2ccccc21
-4.0% | CCC(NC(=O)c1cc(COc2ccc(Cl)cc2OC)on1)c1ccncc1 (stereo not drawn)
-2.2% | CCCCSc1cc(C)nc(N)n1
1.9% | COC(=O)N1CCC2(CC1)CCN(C(c1ccccc1)c1ccccc1)CC2
-2.7% | COc1ccc(-c2nc3ccccc3c(=O)n2NC(=O)Cc2ccccc2)cc1
-9.0% | Cc1ccccc1CN1C(=O)c2ccccc2S(=O)c2ccc(C(=O)NC3CCC(C)CC3)cc21 (stereo not drawn)
4.3% | O=c1oc2ccccc2c2c1C(O)CO2 (stereo not drawn)
-6.6% | CN1CCN(C(=O)CCN2C(=O)c3ccccc3S2(=O)=O)CC1

Arranged by value in VDR inh (smallest number first): 5 of the compounds above
VDR inh | Compound
-9.0% | Cc1ccccc1CN1C(=O)c2ccccc2S(=O)c2ccc(C(=O)NC3CCC(C)CC3)cc21 (stereo not drawn)
-6.6% | CN1CCN(C(=O)CCN2C(=O)c3ccccc3S2(=O)=O)CC1
-2.2% | CCCCSc1cc(C)nc(N)n1
4.3% | O=c1oc2ccccc2c2c1C(O)CO2 (stereo not drawn)
5.1% | CCCn1c(=N)n(CC(=O)c2cccs2)c2ccccc21

Next section
VDR inh | Compound
-23.7% | CC(C)CN(Cc1cc(=O)oc2cc(-c3ccccc3)c(O)cc12)CC(C)C
-1.6% | CCOCCn1cnc2sc(C(=O)NCCCN3CCOCC3)c(C)c2c1=O
-25.9% | CC1CCC(NC(=O)C2(C)Cc3ccccc3C(=O)N2Cc2ccccc2Cl)CC1 (stereo not drawn)
10.3% | CCOC(=O)C1=C(O)/C(=C/c2cccc(OC)c2O)N=C1C
-8.4% | CCOc1ccc(/C=N/n2nnnc2N)cc1O
1.4% | COc1ccc(CCNC(=O)c2cc3c(=O)n4cccc(C)c4nc3n2C)cc1
16.8% | COc1ccc(N2CCN(C(=O)CCn3nc(C)c(S(=O)(=O)N4CCCC4)c3C)CC2)cc1
7.0% | CCCCc1c(O)nc(SCC(=O)N2CCOCC2)n(-c2ccccc2C)c1=O
-22.2% | O=C(COC(=O)c1ncc(Cl)c(Cl)c1Cl)c1ccc(Cl)s1
16.2% | COc1cccc(CNC(=O)c2ccc3c(c2)sc2nc(-c4cccc(OC)c4)cn23)c1
5.5% | Cc1ccc(C(=O)c2cn(CC(=O)NCc3ccccc3)c3nc(C)ccc3c2=O)cc1
5.9% | CCN1C(=O)C2(/C(=C(\O)c3ccc4c(c3)OCCO4)C(=O)C(=O)N2CCCOC)c2ccccc21 (stereo not drawn)
-2.2% | CC(=O)Nc1ccc(S(=O)(=O)NCC2CCC(C(=O)N3CC(C)CC(C)C3)CC2)cc1 (stereo not drawn)
-26.0% | COc1ccc(C2C(C#N)=C(N)SC(N)=C2C#N)cc1OC
21.0% | Cc1cc(C)c(NC(=O)Cn2c(=O)oc3cc(S(=O)(=O)N4CCCCCC4)ccc32)c(C)c1
? | OC(CCN1CC2CCC(CC2)C1)(Cc1ccccc1)c1ccco1 (stereo not drawn)
-7.4% | Cc1nc(SCC(=O)OCc2ccccc2)c(C#N)c(-c2ccccc2)c1C(=O)Nc1ccccc1
-1.5% | Cc1ccc(CN2C(=O)S/C(=C\c3ccccc3OCC(=O)O)C2=O)cc1
2.6% | CN(C(=O)C1CCCO1)c1nnc(-c2ccccn2)s1 (stereo not drawn)
-7.5% | CN(C)Cc1c(C(=O)N/N=C/c2ccncc2)nnn1-c1nonc1N
2.51µM* | COc1cc(N(C)C)cc(CN(C)CCc2ccc([N+](=O)[O-])cc2)c1O
7.8% | Cc1ccc(C)c(OCC(=O)OCC(=O)Nc2c(C)nn(-c3ccccc3)c2C)c1
11.6% | Cc1cccc(NC(=S)N/N=C/C(C)c2ccccc2)c1C (stereo not drawn)
-15.1% | Cc1ccc(-c2ccc(S(=O)(=O)N3CCCC3)cc2)cc1
6.9% | CC(C)(C)C(=O)Nc1nnc(SCC(=O)NC2CC2)s1
-13.6% | O=C(Nc1cc(=O)[nH]c2ncnn12)c1ccccc1F
-13.3% | CCCCN(C(=O)c1sc2nc3n(c(=O)c2c1C)CCC3)c1c(N)n(CC(C)C)c(=O)[nH]c1=O
-4.6% | COc1cc2c(cc1OC)C(c1cc([N+](=O)[O-])ccc1O)NCC2 (stereo not drawn)
22.8% | O=C(NCCc1c[nH]c2ccccc12)c1ccc2nc[nH]c2c1
-6.6% | COc1ccc2sc(-c3ccc(N(C)C)cc3)c(C#CC(C)(C)O)c2c1
5.9% | C[C@H](NC(=O)[C@@H](Cc1c[nH]c2ccccc12)NC(=O)[C@@H](N)Cc1cnc[nH]1)C(=O)N[C@@H](Cc1c[nH]c2ccccc12)C(=O)N[C@H](Cc1ccccc1)C(=O)N[C@@H](CCCCN)C(N)=O
11.2% | O=C(O)C1CC=CCC1C(=O)Nc1ccc2c(c1)CCC2 (stereo not drawn)

6 structures from above, arranged by number of heavy atoms, descending.
VDR inh | Compound
5.9% | CCN1C(=O)C2(/C(=C(\O)c3ccc4c(c3)OCCO4)C(=O)C(=O)N2CCCOC)c2ccccc21 (stereo not drawn)
-2.2% | CC(=O)Nc1ccc(S(=O)(=O)NCC2CCC(C(=O)N3CC(C)CC(C)C3)CC2)cc1 (stereo not drawn)
-13.0% | CN(C(=O)COC(=O)c1cccs1)c1c(N)n(Cc2ccccc2)c(=O)[nH]c1=O
-4.0% | CCC(NC(=O)c1cc(COc2ccc(Cl)cc2OC)on1)c1ccncc1 (stereo not drawn)
2.51µM* | COc1cc(N(C)C)cc(CN(C)CCc2ccc([N+](=O)[O-])cc2)c1O
5.6% | COc1ccc(NC(=O)c2cnc(C)cn2)cc1-n1cnnn1

New compounds follow.
VDR inh | Compound
5.1% | CCOc1ccc(N(CC(=O)NC2CCCC2)S(=O)(=O)c2ccccc2)cc1
-7.4% | CCOC(=O)c1sc2nccc(OC)c2c1N=CN(C)C
-0.6% | CC(=O)Cn1nnc(-c2ccc(C(F)(F)F)cc2)n1
8.7% | CCN(C(=O)CN(C)Cc1c(F)cccc1Cl)c1c(N)n(Cc2ccccc2)c(=O)[nH]c1=O
? | COc1ccc(S(=O)(=O)/N=C2/C=CC(=O)C(C)=C2C)cc1
-6.7% | O=C1c2ccccc2S(=O)(=O)N1CCOc1ccc(F)cc1
? | Cc1oc(-c2ccc(F)cc2)cc1-c1nn2c(-c3ccoc3C)nnc2s1
13.4% | Cn1ncc2c(Nc3cc(C(F)(F)F)ccc3Cl)ncnc21
-2.3% | CCCCOc1ccc(C(=O)OCC(=O)Nc2cc(C)c(C)cc2[N+](=O)[O-])cc1
? | Cc1cnc(=O)[nH]c1SCC(=O)c1ccc(F)cc1
? | O=C(CNc1cccc2ccccc12)N/N=C/c1ccc(OC(=O)/C=C/c2ccco2)cc1
-1.7% | CN(C)C(=O)CCc1nc2sc3c(c2c(=O)[nH]1)CCCC3
0.6% | CCC(C)N(C(=O)CCC(=O)Nc1cc(C)on1)C(C(=O)NC(C)(C)C)c1ccccc1Cl (stereo not drawn)
-17.6% | COCC(=O)N1CCC2(CCCN(Cc3ccccc3)C2)CC1

Assay outcomes (PubChem BioAssay)
